Screening results as filed in PubChem.
2A StopGo: FMDV 2A StopGo reporter, luciferase signal; Potency, µM (doses to about 57.9 µM), for inactives: at the top dose signal change, negative = less light; human cells with a luciferase reporter of 2A StopGo recoding; control for the full effect not named in the record; hit rate 1.2% among 410,000; active = well fitted falling curve with a large enough effect; inconclusive = small, poorly fitted or top-dose-only effect; inactive = no such curve, though single readings can be large or run the other way; tested in HEK293T cells; further: nearly all actives have a fitted effect of over 45% in size; luciferase light after 4 h
RE007 growth inh: less growth of the S. pombe RE007 Vpr strain; S. pombe RE007 Vpr strain, BacTiter-Glo ATP luminescence, 24 h; control for the full effect not named in the record; Potency, µM (titrated, usually from 92.2 µM), without a hit: top-dose activity change, negative = less growth; hit rate 0.21% among 360,000; active = well fitted falling curve with a large enough effect; inconclusive = small, poorly fitted or top-dose-only effect; inactive = no such curve, though single readings can be large or run the other way;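 further: nearly all actives have a fitted effect of over 50% in size; the assay follows cell death caused by Vpr and the record does not say whether a fall means rescue or toxicity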
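Fission yeast strain RE007, carrying one chromosomally integrated HIV-1 vpr copy, was seeded at OD 0.01 in PMG+AL medium with 23 nL pinned compound. After 24 h at 30 °C and 99% humidity, viability was read by BacTiter-Glo luminescence.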
Numbers without * were called inactive; ? = inconclusive; [ ] = another dose, or the depositor's remark. On the % scale 0 is the no-effect control and ±100 the full control effect; potency means the concentration at half of the fitted maximal effect.

Every second line gives: RE007 growth inh, 2A StopGo
> C=CCC12C=C(OC)C(=O)OC(OC)(C1O)[C@H](c1ccc3c(c1)OCO3)[C@H]2C (stereo partly drawn)
  -2%, -19%
> O=C(O)C1=C[C@@H](c2ccccc2)C[C@@H](OCCCCO)O1
  11%, -6%
> CCOC(=O)C1=C[C@@H](C(C)(C)C)N(S(=O)(=O)c2ccccc2C)[C@H]1c1ccc(Cl)cc1
  5%, ?
> Nc1ccn(CCCN2CCN(Cc3cccc4ccccc34)CC2)c(=O)n1
  8%, -14%
> CCOC(=O)C(C(=O)c1ccccc1)C(c1ccccc1)c1nccc2ccccc12 (stereo not drawn)
  -16%, -15%
> O=C1NC[C@H](CCCCN2C[C@H](Cc3ccccc3)N(CCc3ccccc3)C(=O)C2=O)N(CCc2ccc(O)cc2)C1=O
  5%, -15%
> C[C@H](CO)N1C[C@H](C)[C@@H](CN(C)S(=O)(=O)c2ccc(F)cc2)Oc2c(NC(=O)c3ccncc3)cccc2C1=O
  -25%, 11%
> COC(=O)C[C@H]1C[C@@H]2c3cc(NS(=O)(=O)c4cccc(OC)c4)ccc3O[C@@H]2[C@@H](CO)O1
  0%, 2%
> Cc1ccc(S(=O)(=O)N2CCCCC2)cc1NC(=O)COC(=O)c1cccc(O)c1
  3%, -26%
> CNc1cncc(-c2ccc(O)cc2)n1
  10%, 25%
> Cc1cccc(C(O)c2ncc(-c3ccc(C(F)(F)F)cc3)[nH]2)c1C (stereo not drawn)
  -7%[18.4 µM], -10%
> O=C(O)c1ccc(CN2C[C@@H](CO)O[C@@H](n3cnc4c(Nc5ccccc5)ncnc43)C2)cc1
  3%[18.4 µM], -8%
> O=C(c1ccco1)N1CCN(C(=O)c2ccc(CS(=O)c3ccc(Br)cc3)o2)CC1 (stereo not drawn)
  -3%, -5%
> CCOc1ccc(NC(=O)COC(=O)c2c[nH]c3ccccc23)cc1
  6%, -15%
> CCN(CC)CCNC(=O)C(=O)NCC1OCCN1S(=O)(=O)c1cccs1 (stereo not drawn)
  13%, -9%
> CCC(C(=O)NC(C)(C)C)n1c(-c2cccc(NC(C)=O)c2)nc2ccccc21 (stereo not drawn)
  ?, -3%
> OCC1OC(c2ccc(O)cc2O)C(O)C1O (stereo not drawn)
  1%, 0%
> CC1(c2cccc(Br)c2)NC(=O)N(CC(=O)c2ccc3c(c2)OCO3)C1=O (stereo not drawn)
  -11%, ?
> COc1ccc(-c2ccc3c(c2)CN(C(=O)NC2CCCCC2)Cc2cnnn2-3)cc1
  -3%, 8%
> O=C(NCc1ccco1)c1cccc(-c2ccc3nncn3c2)c1
  14%, -6%
> COC(=O)[C@H](CC(C)C)NC(=O)/C=C/[C@H]1O[C@@H](n2ccc(=O)[nH]c2=O)[C@H](O)[C@@H]1O
  2%, -17%
> O=C(NCc1ccccc1)c1cc(C2CCCCN2C(=O)c2ccc(Cl)cc2)on1 (stereo not drawn)
  0%, -14%
> COc1cc(CN2C(=O)C(Cc3ccccc3)ON=C2c2ncccc2C)cc(OC)c1 (stereo not drawn)
  -7%[18.4 µM], -11%
> COC(=O)CCN1CCC2CC1c1cc(N3CCCCC3)ccc12 (stereo not drawn)
  2%, -5%
> CCCNC(=O)C1(C)CCN(CCOc2ccc(Cl)cc2)C1 (stereo not drawn)
  -7%, 0%
> CCN(C(=O)COC(=O)CCCOc1ccc(Cl)cc1C)c1c(N)n(Cc2ccccc2)c(=O)[nH]c1=O
  -11%, -25%
> COc1ccc(NC(=O)c2ccccc2NC(=O)C2CCCCC2C(=O)O)cc1 (stereo not drawn)
  10%, 17%
> O=C(COC(=O)/C=C/c1ccc(F)cc1)NC(=O)NCc1ccccc1
  3%, -14%
> CC(C)(C)NC(=O)C(CCc1ccccc1)n1c(=O)c(-c2ccccc2)nc2ccccc21 (stereo not drawn)
  3%, -25%
> O=C(c1ccoc1)N1CCN(c2cc(-c3ccco3)nc3cc(-c4ccccc4)nn23)CC1
  3%, ?
> O=C(Nc1ccccc1Cl)c1cc(C2CCCN(C(=O)CCc3ccccc3)C2)on1 (stereo not drawn)
  4%, 18%
> CCOC(=O)[C@]12CCCC=C1N(CCC1=CCCCC1)C(=O)[C@H](CC(=O)NCCC(C)C)C2
  -13%, 42%[activator]
> COc1ccc(-c2nc3cc(C)c(Br)c(C)n3c2CC2CCCCC2)cc1OC
  -3%, -7%
> CCOC(=O)[C@]12CCC=C1N(Cc1ccc(Cl)cc1Cl)C(=O)[C@H](CC(=O)N1CCCC1)C2
  23%, -13%
> Cc1ccc(NC(=O)[C@H](Cc2ccccc2)NC(=O)CC[C@H]2O[C@@H](n3ccc(=O)[nH]c3=O)[C@H](O)[C@@H]2O)cc1C
  6%, -16%
> CCCNC(=O)C1(C)CCN(C(=O)c2c(F)ccc(C)c2F)C1 (stereo not drawn)
  8%[18.4 µM], -11%
> O=C(NC(c1ccc(F)cc1)c1ccc2ccccc2n1)C1CCN(Cc2cccc(C(F)(F)F)c2)CC1 (stereo not drawn)
  -10%[18.4 µM], -15%
> CN(C)[C@H]1CCN([C@@H]2CS(=O)(=O)N[C@H]2COCc2ccccc2)C1
  2%, -19%
> CSc1ccc(CN2CCC(C)(Oc3cccc(Cl)c3)C2)cc1 (stereo not drawn)
  -12%[18.4 µM], -20%
> CC(CC(=O)c1ccccc1)=NCCCN=C(C)CC(=O)c1ccccc1
  -6%, 12%
> Clc1ccc(CSc2nnc(-c3ccccn3)n2Cc2cccs2)cc1Cl
  7%, -5%
> C[C@H]1CN([C@@H](C)CO)C(=O)c2cc(-c3cccc(C#N)c3)cnc2O[C@H]1CN(C)C(=O)c1ccccn1
  7%, 17%
> Cc1nc2ccc(C(=O)NCCc3c[nH]c4ccccc34)cn2c1N(C)C(=O)CCc1ccccc1
  -15%, -7%
> NC(Cc1ccc(F)cc1)c1csc(Nc2ccc(C(F)(F)F)cn2)n1 (stereo not drawn)
  -9%[18.4 µM], -22%
> CC1=C(C(=O)N(C(C)C)C(C)C)CC(CC(=O)NCCCN(C)C)C(=O)N1CCC1=CCCCC1 (stereo not drawn)
  -9%, -13%
> O=C(O)c1ccc(CSCc2ccccc2)o1
  -18%, -13%
> c1ccc(Cc2c(C3CCCCC3)nc3c4ccccc4ccn23)cc1
  -14%, 28%
> CCOC(=O)CC1COCCN1C(=O)c1cc(COc2ccccc2SC)on1 (stereo not drawn)
  -2%, 41%[activator]
> CSc1ccc(CNC(=O)C2(C)CCN2C(C)C)cc1 (stereo not drawn)
  -2%[18.4 µM], -12%
> Cc1ccc(N2CCN(C(=O)C(=O)c3ccc(F)c(F)c3)CC2)cc1
  -14%, -5%
> COc1ccc(CC(N)c2csc(NC(=O)c3cccc(OC(F)(F)F)c3)n2)cc1 (stereo not drawn)
  -13%[18.4 µM], -25%
> CCC(CC)C(=O)N(C)c1c(C)nc2c(OCCOc3ccc(F)cc3)cccn12
  5%, ?
> COc1ccc(NC(=O)Nc2ccc3nc([C@@H]4O[C@H](CO)[C@@H](O)[C@H](O)[C@H]4O)[nH]c3c2)cc1OC1CCCC1
  -4%[18.4 µM], -14%
> C[C@H](CO)N1C[C@H](C)[C@@H](CN(C)S(=O)(=O)c2ccccc2)Oc2c(NC(=O)C3CC3)cccc2C1=O
  -7%, 0%
> O=C(c1ccccc1F)N1CCC2CC1c1cc(-c3ccc4c(c3)OCO4)ccc12 (stereo not drawn)
  7%, 0%
> CC(=O)NC(C)(c1ccccc1)c1nc(-c2ccc(S(C)(=O)=O)cc2)cs1 (stereo not drawn)
  -3%, -10%
> Cc1cc2sc3ccc(C#CC4(O)CCCCC4)cc3c(=O)c2cc1C
  -4%, 0.089µM*
> CCOC(=O)C1CCCN(C(=O)/C=C/c2ccccc2)CC1 (stereo not drawn)
  3%[18.4 µM], 1%
> c1ccc(Oc2ccc(-c3cc(NCCc4cccnc4)n4nccc4n3)cc2)cc1
  -18%, -16%
> Cc1ccc(C(=O)N2CCN(C/C=C/c3ccccc3)CC2)cc1S(=O)(=O)N1CCOCC1
  2%, ?

(listing goes on)
Every second line gives: RE007 growth inh, 2A StopGo
> CC1C(c2ccccc2)OCCN1C(=S)Nc1ccc(S(=O)(=O)N2CCCCC2)cc1 (stereo not drawn)
  -29%, ?
> COc1cccc(NC(=O)N(C)C[C@H]2OCc3cn(nn3)CCCC(=O)N([C@@H](C)CO)C[C@@H]2C)c1
  -5%, 5%
> COc1ccccc1Cc1c(-c2ccco2)nc2ccc(Br)cn12
  -23%, ?
> Cc1ccc(S(=O)(=O)n2c(N)nc3cc(C)c(C)cc32)cc1
  -11%[18.4 µM], -13%
> COc1ccc(F)cc1-c1cc(C(=O)NCc2ccc(C(F)(F)F)cc2)[nH]n1
  -8%, -17%
> Cc1ccc(-c2cccc(=O)o2)cc1
  -4%, 16%
> N/C(=N\C(=S)Nc1ccc2c(c1)OCO2)c1ccccc1
  -29%, 44%[activator]
> O=C(NCCc1ccccc1)c1c[nH]c2ccccc2c1=O
  -27%, 41%[activator]
> O=C(Nc1ccccc1)c1cccc2c(-c3cccnc3)coc12
  -19%, -7%
> C[C@H]1CN([C@@H](C)CO)C(=O)CCCn2nncc2CO[C@@H]1CN(C)C(=O)Cc1ccccc1
  10%, -18%
> COc1ccc(CCNC(=O)C(=O)c2cn(CC(=O)N3CCCC3)c3ccccc23)cc1OC
  -9%, -11%
> Cc1nc(-c2ccc(Cl)cc2)sc1C1(C)CC(c2ccncc2)=NO1 (stereo not drawn)
  6%, -15%
> COc1ccc(NC(=O)C2Cc3c(-c4cccc(F)c4)ccnc3O2)cc1 (stereo not drawn)
  -16%, -15%
> COc1ccc(C(O)c2nc(-c3cc4ccccc4o3)cs2)cc1 (stereo not drawn)
  -2%[18.4 µM], 12%
> CCOc1ccc(-c2cc(C(=O)NCc3cc(C(F)(F)F)cc(C(F)(F)F)c3)[nH]n2)c(C)c1
  -5%, -22%
> Clc1ccc(Nc2ccc3ccccc3n2)cc1
  ?, -13%
> O=C(NCCc1ccccc1)c1cccc2c(-c3cccnc3)coc12
  -12%, 19%
> Cc1cccc(NC(=O)C(=O)NCC2CCCN2S(=O)(=O)c2cccs2)c1 (stereo not drawn)
  -2%, 17%

Reprinted from above (15 entries):
Every second line gives: RE007 growth inh, 2A StopGo
> Cc1ccc(S(=O)(=O)n2c(N)nc3cc(C)c(C)cc32)cc1
  -11%[18.4 µM], -13%
> COc1ccc(F)cc1-c1cc(C(=O)NCc2ccc(C(F)(F)F)cc2)[nH]n1
  -8%, -17%
> Cc1ccc(-c2cccc(=O)o2)cc1
  -4%, 16%
> N/C(=N\C(=S)Nc1ccc2c(c1)OCO2)c1ccccc1
  -29%, 44%[activator]
> O=C(NCCc1ccccc1)c1c[nH]c2ccccc2c1=O
  -27%, 41%[activator]
> O=C(Nc1ccccc1)c1cccc2c(-c3cccnc3)coc12
  -19%, -7%
> C[C@H]1CN([C@@H](C)CO)C(=O)CCCn2nncc2CO[C@@H]1CN(C)C(=O)Cc1ccccc1
  10%, -18%
> COc1ccc(CCNC(=O)C(=O)c2cn(CC(=O)N3CCCC3)c3ccccc23)cc1OC
  -9%, -11%
> Cc1nc(-c2ccc(Cl)cc2)sc1C1(C)CC(c2ccncc2)=NO1 (stereo not drawn)
  6%, -15%
> COc1ccc(NC(=O)C2Cc3c(-c4cccc(F)c4)ccnc3O2)cc1 (stereo not drawn)
  -16%, -15%
> COc1ccc(C(O)c2nc(-c3cc4ccccc4o3)cs2)cc1 (stereo not drawn)
  -2%[18.4 µM], 12%
> CCOc1ccc(-c2cc(C(=O)NCc3cc(C(F)(F)F)cc(C(F)(F)F)c3)[nH]n2)c(C)c1
  -5%, -22%
> Clc1ccc(Nc2ccc3ccccc3n2)cc1
  ?, -13%
> O=C(NCCc1ccccc1)c1cccc2c(-c3cccnc3)coc12
  -12%, 19%
> Cc1cccc(NC(=O)C(=O)NCC2CCCN2S(=O)(=O)c2cccs2)c1 (stereo not drawn)
  -2%, 17%

These rows are one share of the data (hit frequency here may not be typical).
